GLA inh pH 4.5 = alpha-galactosidase A (human) inhibition, pH 4.5. 230,000 tested, under 10 active. P06280. AID 1467. purified enzyme, 4-MU-alpha-Gal fluorescence, pH 4.5. activity change, negative = inhibition, % at 105 µM; inconclusive = small, poorly fitted or top-dose-only inhibition, or a rising curve; inactive = flat fitted curve, though single readings scatter; no compound was filed as active;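 further: 0% = full activity with enzyme and -100% = basal without enzyme; dose as in the result columns while the protocol names 77 µM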
Target sequence (P06280 whole entry, looked up): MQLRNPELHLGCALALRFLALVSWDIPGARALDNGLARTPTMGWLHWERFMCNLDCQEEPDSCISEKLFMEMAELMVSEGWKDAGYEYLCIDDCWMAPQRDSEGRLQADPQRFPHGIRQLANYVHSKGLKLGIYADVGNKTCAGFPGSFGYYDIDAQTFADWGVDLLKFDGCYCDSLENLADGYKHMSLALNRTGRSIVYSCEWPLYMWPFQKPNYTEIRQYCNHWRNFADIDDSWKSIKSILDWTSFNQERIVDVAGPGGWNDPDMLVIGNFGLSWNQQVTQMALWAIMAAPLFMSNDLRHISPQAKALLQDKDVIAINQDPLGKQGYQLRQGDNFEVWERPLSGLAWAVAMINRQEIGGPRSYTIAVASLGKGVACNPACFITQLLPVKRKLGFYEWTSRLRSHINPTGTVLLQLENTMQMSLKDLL
* hit, by the source's call; ? = inconclusive; & = joins results of further samples. Not all compounds are listed. The share of hits here may be higher or lower than overall.

SMILES	GLA inh pH 4.5
CC(=O)OC1CC(OC(C)=O)[C@]2(C)C(CC(O)[C@]3(C)C2CC[C@@]2(C)C(c4ccoc4)OC(=O)C4O[C@]432)C1(C)C (stereo partly drawn)	-10.4
CC(=O)NCCNc1nc(-c2ccc(N(C)C)cc2)nc2ccccc12	-6.8
CC(C)[C@@H](CC(=O)N[C@@H]1CCCC[C@H]1C(=O)N[C@H](CC(=O)N[C@@H](CCC(=O)O)CC(=O)O)Cc1ccccc1)NC(=O)C[C@H](Cc1c[nH]c2ccccc12)NC(=O)[C@@H]1CCCC[C@H]1N	-0.5
CO[C@H]1[C@H](O[C@H]2O[C@@H](C)[C@@H](O[C@@H]3C[C@](C)(O)[C@H](OC(=O)CC(C)C)[C@H](C)O3)[C@@H](N(C)C)[C@@H]2O)[C@@H](CC=O)C[C@@H](C)[C@@H](O)/C=C\C=C/C[C@@H](C)OC(=O)C[C@H]1OC(C)=O	-1.2
COC(=O)c1ccc(C(NC(=O)OCc2ccccc2)/C(=C/[C@@H](C)C(=O)Nc2ccccc2)c2cccnc2)cc1 (stereo partly drawn)	-7.3
CC(/C=C/c1cccc(Oc2ccc(F)cc2)c1)N(O)C(N)=O (stereo not drawn)	-3.9
C[C@@H](C(=O)Nc1ccc2ccccc2c1)[C@@H]1C[C@@]1(C)[C@@H](NC(=O)c1ccncc1Cl)c1ccccc1	-6.4
C=CC1=C2C=C(C3CC3)N(CCCOC(C)C)C=C2C(=O)C(C)(OC(=O)c2ccco2)C1=O (stereo not drawn)	3.5
COC(=O)[C@@H]1C[C@@]2(O)[C@@H](O)[C@@H](O)[C@@H](O)C[C@H]2N1CC1CC1	3.5
CS(=O)(=O)Nc1cccc(-c2nccc(NCc3ccccc3)n2)c1	6.3
CC1(C)CCC[C@]2(C)C3CC(=O)O[C@@]3(C)CC[C@H]12 (stereo partly drawn)	0.4
CCOC(=O)C1=C(C)NC(C)=C(C(=O)OC)[C@H]1c1cccc([N+](=O)[O-])c1	-20.6
CCCC1O[C@@H]2C[C@H]3[C@@H]4CCC5=CC(=O)C=C[C@]5(C)C4[C@@H](O)C[C@]3(C)[C@]2(C(=O)CO)O1 (stereo partly drawn)	-3.0
C[C@@H](CN(C)C)CN1c2ccccc2CCc2ccccc21	4.2
CC1=CC2C(=O)c3cccc(O)c3C(=O)C2C(O)=C1 (stereo not drawn)	-10.8
COc1cccc([C@@H]2Oc3ccc(Br)cc3C(=O)[C@H]2OC(=O)N[C@H](C)C2CCCCC2)c1	-2.1
CN(C)/N=N\c1nc[nH]c1C(N)=O	3.2
CN1C(=O)OC(C)(C)C1=O	-4.3
C=CCC1(O)CCOc2ccccc21 (stereo not drawn)	-8.0
N#CCCCS(=O)(=O)c1ccccc1	6.0
CCCCc1nc2c(c3c1C[C@H](C)OC3)CN(C(=O)c1cccnc1)CC2	4.4
CC1(OC(=O)c2ccc(Cl)nc2)C(=O)C=C2C=C(C3CC3)OC=C2C1=O (stereo not drawn)	0.7
CCCC[C@@H](NC(=O)[C@@H](Cc1cn(C(=O)OC)c2ccccc12)NC(=O)[C@H](CC(C)(C)C)NC(=O)N1[C@H](C)CCC[C@@H]1C)C(=O)O	-0.7
CC1=CC(=O)OC1Cc1ccc2ccccc2n1 (stereo not drawn)	-3.9
COC(=O)[C@@]1(Cc2ccccc2)[C@H]2c3cc(C(=O)N4CCCC4)n(Cc4nc5ccccc5[nH]4)c3C[C@H]2CN1C(=O)c1ccccc1	-5.0
Next section.
SMILES	GLA inh pH 4.5
O=C1NC(=O)c2cc(Nc3ccc(F)cc3)c(Nc3ccc(F)cc3)cc21	-2.3
CC1(C)C(=O)C2C[C@]3(O)C4=CC(=O)OC(c5ccoc5)[C@]4(C)CCC3[C@](C)(C2=O)C1CC(=O)O (stereo partly drawn)	5.1
COc1cccc(-c2cc(=O)c3ccccc3o2)c1N	-7.7&-2.3
COCC1C2CC[C@H]3C(OCc4ccc(F)cc4C(F)(F)F)OC[C@]4(C)[C@H]3C2=C(CN4C(=O)OC(C)(C)C)[C@H](C)C1COC (stereo partly drawn)	-3.1
CCC(/C=C/C(C)C1CCC2C3CC=C4CC(O)CC[C@@]4(C)C3CC[C@@]12C)C(C)C (stereo partly drawn)	10.2
C[C@H]1Cc2c(-c3ccccc3)nc3c(c2CO1)CN(C(=O)C1CC1)CC3	3.7
CCC/C=C(\CCC)C(NS(=O)(=O)CC12CCC(CC1=O)C2(C)C)c1ccc(C(=O)OC)cc1 (stereo not drawn)	-23.1
CC(C)Cn1nnnc1S(=O)(=O)Cc1cccc(C#N)c1	-2.9
COC(=O)c1ccc(C(NC(=O)OCc2ccccc2)/C(C)=C/[C@@H](C)C(=O)NC2CCCCC2)cc1 (stereo partly drawn)	-5.7
CC(C)[C@@H](CC(=O)N[C@@H]1CCNC[C@H]1C(=O)N[C@H](CC(=O)N[C@@H](CCC(=O)O)CC(=O)O)Cc1c[nH]c2ccccc12)NC(=O)C[C@H](CO)NC(=O)[C@@H]1CNCC[C@H]1N	-9.8
COc1cc2c(cc1OC)C1C(=O)c3c(O)cc4c(c3OC1CO2)C=CC(C)(C)O4 (stereo not drawn)	-1.5
CCCCC/C=C\C/C=C\C/C=C\CCCCC(N)=O	0.0
C=CC(C1=CC(=O)C=CC1=O)c1ccc(O)cc1 (stereo not drawn)	-1.9
NC/C=C/C(=O)O	4.2&1.6
O=C(O)/C=C\c1ccc(Cn2ccnc2)cc1	4.8
CS(=O)(=O)c1ccc(Cn2c3c(c4cc(F)cc(F)c42)CCC[C@H]3CC(=O)O)cc1	-4.7
CCC1OC(=O)C(C)[C@@H](O[C@H]2C[C@@](C)(OC)C(O)C(C)O2)C(C)[C@@H](O[C@@H]2OC(C)CC(N(C)C)C2O)[C@@](C)(O)CC(C)C(=O)[C@@H](C)C(O)[C@]1(C)O (stereo partly drawn)	3.3
O=C(O)C=Cc1ccc(Cn2ccnc2)cc1	3.0
NC[C@@H]1O[C@H](O[C@@H]2[C@H](O[C@@H]3O[C@H](CO)[C@@H](COC[C@H]4O[C@@H](CN)[C@@H](O)[C@@H](O)[C@@H]4N)[C@@H]3O)[C@@H](O)[C@@H](N)C[C@H]2N)[C@@H](N)[C@H](O)[C@@H]1O	4.2
NCC1O[C@@H](OC2C(N)C[C@H](N)[C@@H](O[C@H]3OC(CO)C(O)C(N)C3O)C2O)C(O)C(O)C1O (stereo partly drawn)	-3.3
COC(=O)N1C(c2ccccc2)=Cc2ccccc2C1CC(C)=O (stereo not drawn)	2.4
CCCCC1=CC2=CC(=O)C(C)(OC(=O)CC)C(=O)C2=CN1CCCN(CC)CC (stereo not drawn)	7.0
COc1cc2c(cc1OC)-c1cc(=Nc3c(C)cc(C)cc3C)n(C)c(=O)n1CC2	-13.8&-7.9
N[C@H](CCC(=O)NCC(=O)O)C(=O)O	-1.6
C[C@@H](C(=O)N[C@@H](CO)Cc1ccccc1)[C@H]1C[C@]1(C)[C@H](NC(=O)OCc1ccccc1)c1ccccc1	?
Going on with the list.
SMILES	GLA inh pH 4.5
CCN(Cc1ccncc1)C(=O)[C@@H](CO)c1ccccc1	-5.9&4.4
COC(=O)[C@@H](NC(=O)N1CCc2nc(-c3ccccc3)c3c(c2C1)CO[C@@H](C)C3)C(C)C	-5.8
N[C@](CC1c2ccccc2Oc2ccccc21)(C(=O)O)[C@@H]1C[C@@H]1C(=O)O	5.0
S=C(NCCCc1cnc[nH]1)NCCCN(Cc1ccc(Cl)c(Cl)c1)c1ccc(Br)cn1	-6.2
CCC[C@H]1C(=O)N2C(N(C)C)=Nc3ccc(C)cc3N2C1=O	7.3
Fc1ccc(C(c2ccc(F)cc2)N2CCN(C/C=C\c3ccccc3)CC2)cc1	-8.3&-3.3
CC(=O)NC1C(O)C[C@@](O)(C(=O)O)OC1[C@@H](O)C(O)CO (stereo partly drawn)	-3.0
O[C@@H]1[C@@H]2c3cc4c(cc3CN3CCC(=C[C@@H]1O)[C@H]23)OCO4	10.9
COc1cc(/C=C(\C#N)C(N)=O)cc(CSc2nc3ccccc3s2)c1O	-9.3
CC(C)OC(=O)[C@@H]1CC[C@H](C)[C@@H](CCCCO)O1	-10.6
CCCC/C=C/C(NC(=O)c1cccs1)c1ccccc1 (stereo not drawn)	-12.6
CN1CCN2c3ccccc3Cc3ccccc3[C@@H]2C1	-10.1&-0.2
CCOC(=O)C(=O)C1(C(=O)OCC)Oc2cc(OC)cc(OC)c2C(=O)C1c1ccccc1 (stereo not drawn)	-2.6
COc1cc(C2CC(=O)Oc3c(C(C)C)ccc(C)c32)cc(OC)c1OC (stereo not drawn)	-12.4
O=C1CCC=C1C(O)c1ccc2c(c1)OCO2 (stereo not drawn)	-9.8
CCCn1c(-c2ccc(F)cc2)nc2c(NCCN3CCSCC3)nc(C)nc21	-0.6
COc1cc2c(C(=O)c3ccccc3)c3c4c(cc(OC)c(OC)c4c2cc1OC)CCN3C	-6.4
CCc1cccc2c(-c3ccccc3)c3c(nc12)OCC3	-6.1
C=CCN1c2ccccc2[C@]23C[C@@H](C(=O)OC)N(S(=O)(=O)c4cccs4)C2=NC(C(=O)OC)=C(C(=O)OC)[C@H]13	-1.3
COCOc1cc(OC)ccc1C(=O)/C=C/c1cccc(C(F)(F)F)c1	0.3
C[C@@H](O)[C@H]1C(=O)N2C(C(=O)O)=C(S[C@@H]3CN[C@H](C(=O)N(C)C)C3)[C@H](C)[C@H]12	5.9
NC(=O)C1=CN(C2OC(COP(=O)(O)OP(=O)(O)OC[C@H]3O[C@@H](n4cnc5c(N)ncnc54)[C@H](OP(=O)(O)O)[C@H]3O)C(O)C2O)C=CC1 (stereo partly drawn)	3.7
CC1C2CCC3C4CC=C5CC(N(C)C)CC[C@@]5(C)C4CC[C@@]32CN1C (stereo partly drawn)	-6.2
CCCCC/C=C\C/C=C\C/C=C\C/C=C\CCCCCC(=O)O	1.0
CO[C@@H]1[C@@H]2OP(=O)(O)OC[C@H]2O[C@H]1n1c(Sc2ccc(Cl)cc2)nc2c(N)ncnc21	5.0

Exported as a markdown table: entries from further up
| Structure | GLA inh pH 4.5 |
| --- | --- |
| CCCC/C=C/C(NC(=O)c1cccs1)c1ccccc1 (stereo not drawn) | -12.6 |
| S=C(NCCCc1cnc[nH]1)NCCCN(Cc1ccc(Cl)c(Cl)c1)c1ccc(Br)cn1 | -6.2 |

Continued.
SMILES	GLA inh pH 4.5
CCCCC/C=C\C/C=C\C=C\[C@@H](O)C/C=C\CCCC(=O)O	-1.9
C[C@]12CC[C@@H]3c4ccc(O)cc4CC[C@H]3[C@@H]1CC[C@H]2O	-0.1
COc1cc(O)c(C(=O)/C=C/c2ccc(O)c(OC)c2)c(OC)c1	-1.1
CS(=O)(=O)Nc1cccc(-c2nc(N3CCOCC3)c3ccccc3n2)c1	4.7
CCC(=O)OCC(=O)[C@@]1(OC(=O)CC)[C@@H](C)C[C@@H]2[C@H]3CCC4=CC(=O)C=C[C@]4(C)[C@@]3(F)[C@@H](O)C[C@@]21C	-13.1
O=C(c1c(O)c2ccc(Cl)cc2[nH]c1=O)C1CC1	-2.4
COC(=O)C1(CC(C)C)C=C2C(=C(C(C)C)C(=O)C2C)CN1 (stereo not drawn)	1.9
FC(F)(F)c1cc(CO[C@H]2CCCN[C@H]2c2ccccc2)cc(C(F)(F)F)c1	-15.9&-29.0
C[C@@]12CCC3c4ccc(O)cc4CCC3C1CCC2O (stereo partly drawn)	1.1
COC(=O)[C@@]1(Cc2ccccc2)[C@H]2c3cc(C(=O)N4CCCC4)[nH]c3C[C@H]2CN1C(=O)c1ccccc1	-1.7
CC1(OC(=O)c2ccco2)C(=O)C2=COC(C3CC3)=CC2=C(Br)C1=O (stereo not drawn)	5.1
COC(=O)C(C(=O)OC)C1c2ccccc2C=C(C2CC2)N1C(=O)OC (stereo not drawn)	-5.1&-0.4
CC(=O)[C@]1(O)CCC2C3C=C(Cl)C4=CC(=O)C5CC5[C@@]4(C)C3CC[C@]21C (stereo partly drawn)	-0.1
Cc1nc(N=Nc2cc(S(=O)(=O)O)ccc2S(=O)(=O)O)c(COP(=O)(O)O)c(C=O)c1O	-5.7
CC(C)C[C@@H](CC(=O)N[C@H](CC(=O)N[C@@H]1CCNC[C@H]1C(=O)N[C@H](CC(=O)N[C@@H](CCC(=O)O)CC(=O)O)Cc1ccccc1)C(C)C)NC(=O)[C@@H]1CCCC[C@H]1N	-4.5
CC(C)[C@@H](CC(=O)N[C@@H]1CCNC[C@H]1C(=O)N[C@H](CC(=O)N[C@@H](CCC(=O)O)CC(=O)O)Cc1ccccc1)NC(=O)C[C@H](Cc1ccccc1)NC(=O)[C@@H]1CNCC[C@H]1N	-3.8
CCCCNC(=O)C(c1ccc(OCC(=O)OC)c(C(=O)OC)c1)N(Cc1ccccn1)C(=O)CCCCCN1C(=O)NC(c2ccc(-c3ccccc3)cc2)C(C(=O)OCc2ccccc2)=C1C (stereo not drawn)	-12.8
NC(N)=N/N=C\c1c(Cl)cccc1Cl	-5.7
COc1ccc(C2=CC3=C(Br)C(=O)C(C)(OC(=O)CCc4ccccc4)C(=O)C3=CO2)cc1 (stereo not drawn)	-3.7
O=C(Nc1ccc(O)c2c(=O)cc(-c3ccccc3Cl)oc12)c1ccc(Br)cc1	-11.6
FC(F)(F)c1ccccc1-c1nccc(NCc2ccccc2)n1	-0.4
N[C@]1(C(=O)O)CCc2cc(C(=O)O)ccc21	-8.3
CC(C)[C@H](CO)Nc1nc(Nc2cc(N)cc(Cl)c2)c2ncn(C(C)C)c2n1	-21.4
Cc1ccc(S(=O)(=O)COCCN2CCN(S(=O)(=O)c3ccc(C)cc3)CCC2=O)cc1	-9.8

Some values from the results shown:
For GLA inh pH 4.5, CC(=O)[C@]1(O)CCC2C3C=C(Cl)C4=CC(=O)C5CC5[C@@]4(C)C3CC[C@]21C (stereo partly drawn) shows -0.1
For GLA inh pH 4.5, CC1(OC(=O)c2ccco2)C(=O)C2=COC(C3CC3)=CC2=C(Br)C1=O (stereo not drawn) shows 5.1
For GLA inh pH 4.5, O=C(c1c(O)c2ccc(Cl)cc2[nH]c1=O)C1CC1 shows -2.4

Assay outcomes as filed in PubChem.
